Sa ugtP lethal: growth inhibition of ugtP-null S. aureus, primary screen, RN4220 ugtP deletion, OD600; AID 1259309, 2017; 16 h; some inactives read as strong as hits; growth inhibition, % (test concentration not listed); 330,000 compounds, 0.54% hits;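 active = z-score under -3 and OD600 up to 0.15 on both plates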;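 also: plate controls were untreated wells for no effect and antibiotic for full effect; wells of about 80 µL received 100 nL stock; the first replicate is given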
Bead autofluor: counter-screen for toxin protease inhibitors: compound fluorescence; compound autofluorescence counterscreen, microsphere flow cytometry; stronger effect = higher value; fluorescence intensity (no concentration beside the values); 360,000 compounds, 3.1% hits;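 active = at least 3 SD above the mean of all compounds, about 16000 in these data; inconclusive = too few beads counted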;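 also: 100 nL of 1 mM stock went into each well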
PrP UTR inh: inhibition of PrP 5' UTR reporter expression. inhibition, % (concentration not given with the values). 340,000 compounds, 0.35% hits. cell-based PrP 5' UTR mRNA reporter, plate reader;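 active = every replicate at 50% or more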;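 also: 0 = median of the neutral control wells; tested in H4 reporter cells; numbers are from one replicate; inactives centre near -14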
Mtb hypoxia rep: PubChem AID 1159583. M. tuberculosis hypoxia-regulated fluorescent reporter, fluorescence. 300,000 compounds, 0.1% hits. fluorescence inhibition, % (test concentration not listed);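 active = 35 to 45% if threefold the growth effect, above 45% if 1.5-fold the growth effect; inactive = the rest, general growth blockers included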;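 also: wells of about 50 µL received 100 nL stock; 0% = vehicle wells and 100% = reference inhibitor wells; whole bacteria with a GFP reporter of the hypoxia response; strong numbers were not always called active; many hits fall short of the cut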
BJeLR viability: MLPCN primary cell-based screen for lethality selective to Ras in HRASV12 cells; BJeLR (HRASV12) viability, CellTiter-Glo ATP luminescence, 48 h; reference of the scale not given here; inhibition, % (test concentration not listed); 300,000 compounds, 0.17% hits;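 active = replicate mean above 50%; inconclusive = above 50% but judged a plate artefact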;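 also: 50 nL library stock added to about 25 µL; numbers are from one replicate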
RN4220 kill: growth inhibition of S. aureus RN4220, primary screen, OD600 | 16 h | 330,000 compounds, 0.33% hits | AID 1259311, 2017 | inhibition, % (no concentration beside the values);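 active = z-score of -3 or lower and OD600 up to 0.18 on both plates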;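 also: plate controls were untreated cells for no effect and reference antibiotic for full effect; stock transfer was 100 nL into about 80 µL; one replicate is shown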
Mtb hypoxia rep growth: further read-out of Mtb hypoxia rep, marked with its call; growth inhibition, %; measured here: M. tuberculosis growth (absorbance);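 0% = vehicle and 100% = reference antibiotic; read after six days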
Starred values were filed as active, the others as inactive; ? = inconclusive; . = not tested or not shown. Compounds as they come. Share with any hit: about 4%.

1: O=C(Cc1ccccc1)N1CCN(Cc2cccnc2)CC1
2: CC(C)(C)c1cc(C(=O)NN=Cc2ccco2)n[nH]1
3: CN(CC(=O)Nc1ccc(Cl)cc1)C(=O)c1ccc(NS(=O)(=O)c2ccc3[nH]c(=O)[nH]c3c2)cc1
4: CN(NC(=O)c1ccccc1F)c1ccc([N+](=O)[O-])cn1
5: Cc1cc(NC(=O)CSc2nc(=O)n3cccc(C)c3n2)no1
6: CCCOC(=O)c1ccc(Cl)c(NC(=O)c2ccc(-c3ccccc3)cc2)c1
7: COC(=O)CN1C(=O)[C@H]2[C@@H](C3CC3)N3C(=O)CN(Cc4ccccn4)C(=O)[C@@]3(Cc3ccccc3)[C@H]2C1=O
8: COc1cc(CCC(=O)OCC(=O)NCc2ccc(Cl)cc2)cc(OC)c1OC

entry no.	1	2	3	4	5	6	7	8
Sa ugtP lethal	8	-1	4	-2	2	14	.	-1
Bead autofluor	4807	.	.	6842	6614	5237	2992	3354
PrP UTR inh	-8	.	-11	-20	-19	-33	-16	-11
Mtb hypoxia rep	.	3	1	-1	7	13	.	-7
Mtb hypoxia rep growth	.	-2	-5	7	-4	9	.	-10
BJeLR viability	2	.	2	-7	0	-3	-1	6
RN4220 kill	-0.7	5.5	0.3	2.7	5.7	0.2	.	-6.3

9: O=C(N1CCN(c2ccccc2)CC1)C(F)(F)C(F)(F)F
10: Cc1cc(C(=O)CSc2nn(-c3ccccc3)c(=S)s2)c(C)n1Cc1ccco1
11: COc1ccc(/C=C2\CCCc3c2nc2ccc(C)cc2c3C(=O)O)cc1O
12: CC1(C(=O)NC23CC4CC(CC(C4)C2)C3)CC1(Cl)Cl (stereo not drawn)
13: CCOn1c(=O)c(C)[n+]([O-])c2ccccc21
14: COc1ccc(CCNC(=O)C(=O)c2c(C)n(C)c3ccccc23)cc1OC
15: Cc1cc(S(=O)(=O)N2CCN(Cc3ccc4c(c3)OCO4)CC2)cc(C)c1N1CCCC1=O
16: COC(=O)CSc1nc(N)c(NC(=O)c2ccc(OC)c(OC)c2)c(=O)[nH]1

entry no.	9	10	11	12	13	14	15	16
Sa ugtP lethal	5	-15	-6	0	4	5	5	-2
Bead autofluor	19895*	10878	4660	11276	2914	5523	5869	6847
PrP UTR inh	-6	-18	-1	-39	-18	-4	6	-24
Mtb hypoxia rep	3	4	8	3	-19	1	.	12
Mtb hypoxia rep growth	7	-2	1	0	-15	14	.	9
BJeLR viability	0	4	1	7	-6	1	4	11
RN4220 kill	4.6	0.3	4.5	0.7	2.0	1.5	8.3	-5.5

Sorted by formula weight (high to low): part of the list above.
7: COC(=O)CN1C(=O)[C@H]2[C@@H](C3CC3)N3C(=O)CN(Cc4ccccn4)C(=O)[C@@]3(Cc3ccccc3)[C@H]2C1=O
15: Cc1cc(S(=O)(=O)N2CCN(Cc3ccc4c(c3)OCO4)CC2)cc(C)c1N1CCCC1=O
10: Cc1cc(C(=O)CSc2nn(-c3ccccc3)c(=S)s2)c(C)n1Cc1ccco1
8: COc1cc(CCC(=O)OCC(=O)NCc2ccc(Cl)cc2)cc(OC)c1OC
6: CCCOC(=O)c1ccc(Cl)c(NC(=O)c2ccc(-c3ccccc3)cc2)c1
14: COc1ccc(CCNC(=O)C(=O)c2c(C)n(C)c3ccccc23)cc1OC
11: COc1ccc(/C=C2\CCCc3c2nc2ccc(C)cc2c3C(=O)O)cc1O
5: Cc1cc(NC(=O)CSc2nc(=O)n3cccc(C)c3n2)no1
9: O=C(N1CCN(c2ccccc2)CC1)C(F)(F)C(F)(F)F
12: CC1(C(=O)NC23CC4CC(CC(C4)C2)C3)CC1(Cl)Cl (stereo not drawn)

entry no.	7	15	10	8	6	14	11	5	9	12
Sa ugtP lethal	.	5	-15	-1	14	5	-6	2	5	0
Bead autofluor	2992	5869	10878	3354	5237	5523	4660	6614	19895*	11276
PrP UTR inh	-16	6	-18	-11	-33	-4	-1	-19	-6	-39
Mtb hypoxia rep	.	.	4	-7	13	1	8	7	3	3
Mtb hypoxia rep growth	.	.	-2	-10	9	14	1	-4	7	0
BJeLR viability	-1	4	4	6	-3	1	1	0	0	7
RN4220 kill	.	8.3	0.3	-6.3	0.2	1.5	4.5	5.7	4.6	0.7

13: CCOn1c(=O)c(C)[n+]([O-])c2ccccc21

entry no.	13
Sa ugtP lethal	4
Bead autofluor	2914
PrP UTR inh	-18
Mtb hypoxia rep	-19
Mtb hypoxia rep growth	-15
BJeLR viability	-6
RN4220 kill	2.0

Following part
17: Cc1cccc(C(=O)OCC(=O)c2ccc3c(c2)OCCO3)c1O
18: Cc1ccccc1NC(=S)N(C)CCc1ccccn1
19: O=C(C1=C[C@H](c2ccc3c(c2)OCO3)C[C@H](OCCCCO)O1)N1CCOCC1
20: Nc1cnc(Br)cc1Br
21: COc1ccc(CNC(=O)C[C@H]2C[C@H](C(=O)N3CCCCC3)[C@@]3(CCc4ccccc4)c4[nH]c5ccc(Cl)cc5c4CCN3C2=O)cc1OC
22: CCOC(=O)c1nnn2c1nc(Nc1cccc(C(F)(F)F)c1)c1ccccc12
23: Cc1cc(C(=O)CCC(=O)NCc2ccccc2F)c(C)s1
24: Cn1c(-c2ccccc2)cnc1NCc1ccc(-c2ccccc2)cc1

entry no.	17	18	19	20	21	22	23	24
Sa ugtP lethal	1	-10	-3	4	-17	2	11	-35
Bead autofluor	.	2744	3699	11262	3839	?	?	.
PrP UTR inh	-43	-7	-22	-11	-5	.	1	-20
Mtb hypoxia rep	8	3	10	-3	-16	0	-3	-7
Mtb hypoxia rep growth	9	4	7	-5	-3	2	0	0
BJeLR viability	.	-8	-2	-6	.	4	-4	3
RN4220 kill	0.3	0.4	-11	8.0	-2.8	2.1	6.0	-6.0

25: CC(=O)c1ccc(S(=O)(=O)N2CCN(CC(=O)Nc3ccccc3C(=O)NC3CC3)CC2)cc1
26: COc1cccc(-n2c(SCC(N)=O)nnc2-c2c[nH]c3ccccc23)c1
27: CCCC(=O)OCCNc1cc(SCCC(=O)OC)c2nonc2c1[N+](=O)[O-]
28: Cc1cc(NC(=O)Cc2ccccc2)c2ccccc2n1
29: O=C(NN=Cc1cccc(F)c1)NC1CCCCC1
30: O=C(CCCN1C(=O)NC2(CCCC2)C1=O)NCc1ccccc1
31: O=C(Cc1cccs1)NCc1ccncc1
32: COc1ccc(-c2cc(-c3ccccc3)nc(NN)n2)cc1OC

entry no.	25	26	27	28	29	30	31	32
Sa ugtP lethal	0	4	16	17	-1	4	-1	-4
Bead autofluor	3853	6213	2420	4658	.	2886	10939	3061
PrP UTR inh	-20	-17	-10	-3	.	-3	-24	-13
Mtb hypoxia rep	10	8	.	4	3	3	-6	3
Mtb hypoxia rep growth	3	6	.	1	2	1	5	2
BJeLR viability	.	1	0	10	.	.	3	0
RN4220 kill	0.6	9.7	13	5.4	12	5.9	-1.4	8.6

33: CCOC(=O)C(C)c1ccc2cc(OC)ccc2c1 (stereo not drawn)
34: CC(C)CN(C(=O)CCCc1nc2ccccc2c(=O)[nH]1)c1c(N)n(Cc2ccccc2)c(=O)[nH]c1=O
35: COc1cccc(OC)c1OCCCOc1c(OC)cccc1OC
36: COc1ccc(CCC(C)NCC(C)c2ccccc2)cc1 (stereo not drawn)
37: c1ccc2c3c([nH]c2c1)CNCC3
38: COc1cc(C(=S)N2CCOCC2)ccc1OC(=O)c1ccc(Br)cc1
39: Cc1cc(C(=O)COC(=O)CNS(=O)(=O)c2ccc3ccccc3c2)c(C)n1-c1ccccc1
40: COc1ccccc1NC(=O)Nc1c(C)nn(C)c1C

entry no.	33	34	35	36	37	38	39	40
Sa ugtP lethal	8	-4	-5	-2	-5	1	3	14
Bead autofluor	2781	5404	4035	4051	7577	3493	2087	4142
PrP UTR inh	-16	-30	-18	-7	-5	-20	-46	-22
Mtb hypoxia rep	-7	-5	.	0	1	3	-3	8
Mtb hypoxia rep growth	-2	3	.	9	4	-10	6	1
BJeLR viability	7	7	0	10	5	-2	1	-1
RN4220 kill	-0.2	-0.3	1.8	-1.3	5.8	8.9	3.4	6.1

41: COc1ccc2[nH]c3nc(SCc4nnc(-c5ccccc5)o4)nnc3c2c1
42: CC(C)(C)c1ccc(C(=O)NN2C(=O)CSC2=S)cc1
43: O=[N+]([O-])c1ccc(/C=N/NC(=S)Nc2ccccc2C(F)(F)F)o1
44: NC(=O)CSc1nnc(-c2ccc(S(=O)(=O)N3CCCC3)cc2)n1Cc1ccco1
45: O=C(CN1c2ccccc2Sc2ccccc21)NNC(=S)Nc1ccc(Cl)cc1Cl
46: CN1CC2C3C(=O)N(Cc4ccccc4)C(=O)C3[C@](Cc3ccccc3)(C1=O)N2C(=O)c1ccc(Cl)cc1 (stereo partly drawn)
47: Nc1nc(Nc2ccc(Cl)cc2)nc(NCc2ccco2)c1[N+](=O)[O-]
48: COc1ccccc1-c1nc(C#N)c(N2CCC(Cc3ccccc3)CC2)o1

entry no.	41	42	43	44	45	46	47	48
Sa ugtP lethal	-9	1	.	2	.	2	.	-17
Bead autofluor	5503	4714	1905	19668*	3091	.	4020	3407
PrP UTR inh	-36	-23	-16	-7	-25	.	-41	-11
Mtb hypoxia rep	3	13	.	13	.	13	.	-5
Mtb hypoxia rep growth	3	16	.	11	.	9	.	9
BJeLR viability	7	8	-14	4	4	.	-5	1
RN4220 kill	2.9	7.9	.	6.4	.	4.9	.	-1.3

49: COc1ccccc1OCC(=O)NN=C1CCCCc2ccccc21
50: CCOc1ccccc1CN1CCC(N2CCOCC2)CC1
51: COc1cccc(OC)c1CC1SC(=O)NC1=O (stereo not drawn)
52: COC(=O)CNC(=O)c1c(C)cc(=O)oc1C
53: COC(=O)CC1SC(=O)NC1=Nc1ccc(OC)cc1 (stereo not drawn)
54: COc1ccccc1CNC(=O)C1CCC(CNc2c(N3CCOCC3)c(=O)c2=O)CC1 (stereo not drawn)
55: CC1=NN(c2nc(-c3ccc(C)cc3)cs2)C(=O)C1N=Nc1ccc2ccccc2c1 (stereo not drawn)
56: CC(Oc1cccc(F)c1)c1ccnc2nc(/N=C/N(C)C)nn12 (stereo not drawn)

entry no.	49	50	51	52	53	54	55	56
Sa ugtP lethal	4	3	4	1	5	10	-8	.
Bead autofluor	.	3490	1995	12322	2479	5320	3318	4484
PrP UTR inh	.	-9	-11	-2	-27	-20	-16	-6
Mtb hypoxia rep	18	17	15	1	.	13	13	.
Mtb hypoxia rep growth	8	1	-7	1	.	4	3	.
BJeLR viability	.	-6	8	3	-3	3	-6	-15
RN4220 kill	3.1	2.5	7.5	1.6	1.7	3.1	5.2	.

57: COc1ccc(/C=C/C(=O)Nc2ccc(S(=O)(=O)Nc3cc(C)nc(C)n3)cc2)cc1OC
58: COc1ccc(NC(=S)N2CCN(S(=O)(=O)c3ccc(F)cc3)CC2)cc1
59: O=C1c2ccccc2C(Nc2cccnc2)N1Cc1ccccc1 (stereo not drawn)
60: CCOC(=O)CCc1nn(C)c(=O)c2ccccc12
61: CCn1c(SCC(=O)Nc2sc(C)c(C)c2C#N)nnc1C(C)C
62: CCCC(C)NC(=O)CSCc1ccc(OC)cc1 (stereo not drawn)
63: Cc1ccccc1NC(=O)NCCCN1CCN(C2CCCCC2)CC1
64: CCOC(=O)C1C2COc3cc(OC)ccc3C2N2C(=O)CN(Cc3ccc(OC)cc3)C(=O)[C@@]12C (stereo partly drawn)

entry no.	57	58	59	60	61	62	63	64
Sa ugtP lethal	-4	-7	-2	5	-2	15	0	3
Bead autofluor	6174	6694	5755	2652	3168	4200	2121	.
PrP UTR inh	-10	6	-7	-4	-18	-19	-14	.
Mtb hypoxia rep	20	1	2	3	.	3	.	-2
Mtb hypoxia rep growth	6	15	13	-5	.	9	.	-3
BJeLR viability	-11	.	-1	1	-10	1	9	.
RN4220 kill	-2.8	-1.2	-2.3	7.3	3.5	5.3	0.5	0.7

65: O=C(CC1Sc2ccccc2NC1=O)c1ccc(Br)cc1 (stereo not drawn)
66: CCCNS(=O)(=O)c1ccc(NC(=O)c2ccccn2)cc1
67: COc1ccc2c(c1)C(SCC(=O)NCc1ccccc1)CC(C)(C)O2 (stereo not drawn)
68: CCOC(=O)c1ccc(NC(=O)Cn2c(-c3nonc3N)nc3ccccc32)cc1

entry no.	65	66	67	68
Sa ugtP lethal	-4	-4	8	13
Bead autofluor	2592	2656	4176	4543
PrP UTR inh	-78	-32	-3	-66
Mtb hypoxia rep	5	.	.	5
Mtb hypoxia rep growth	-6	.	.	-3
BJeLR viability	-3	.	-9	-8
RN4220 kill	2.3	-0.4	1.4	2.8

Compound activity deposited in PubChem by several laboratories.
